Screens (PubChem)
AID504770 – growth inhibitors of E. coli YBA685 in a screen for V. cholerae RctB (chromosome II replication) inhibitors; E. coli YBA685 rctB-dependent plasmid, OD600 growth, 3 h; stronger effect = lower value; z-score (concentration not given with the values); 130,000 compounds, 0.27% hits; AID 504770;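 active = z-score under -2 on both plates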;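 note: wells of about 30 µL received 100 nL stock; score is relative to mean and SD of the test wells; the first replicate is given; strong numbers were not always called active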
Ba CapD inh – CapD enzyme inhibition. z-score (test concentration not listed). 140,000 compounds, 0.23% hits. purified CapD enzyme, fluorescence intensity read-out; stronger effect = lower value; some hits fall short of the stated cut;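 active = z-score under -4 in either of two replicates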;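 note: stock transfer was 100 nL into about 40 µL; score is relative to mean and spread of the plate; one replicate is shown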
Active calls of the source: *; . = no result given; & = joins results of further samples.

Start of the data: the first 6 compounds (preview)
cpd	SMILES	AID504770	Ba CapD inh
1	CSc1nsc(SC)c1C(=O)NC(=O)Nc1ccc(C(C)C)cc1	.	1.8
2	CC(C)(C)C(=O)Cn1nnc(N2CCCC2)n1	-0.4	0.23
3	COc1cccc(C2C3=C(CC(C)(C)CC3=O)Nc3ccc4ccccc4c32)c1OC (centres undefined)	.	12
4	COc1cc(-c2c(C#N)c(N)nc3sc(C(=O)c4ccc(Cl)cc4)c(N)c23)cc(OC)c1OC	.	-0.38
5	COC(=O)C1=C(C(=O)OC)SC(=C2C(=S)C(C)(C)N(C(=O)c3ccc(Br)cc3)c3cc(OC)ccc32)S1	.	0.11
6	Cc1c(CSC(=N)N)c(C)c(CSC(=N)N)c(C)c1CSC(=N)N	-0.8	0.43

All compounds of this part (from the top)
cpd	SMILES	AID504770	Ba CapD inh
1	CSc1nsc(SC)c1C(=O)NC(=O)Nc1ccc(C(C)C)cc1	.	1.8
2	CC(C)(C)C(=O)Cn1nnc(N2CCCC2)n1	-0.4	0.23
3	COc1cccc(C2C3=C(CC(C)(C)CC3=O)Nc3ccc4ccccc4c32)c1OC (centres undefined)	.	12
4	COc1cc(-c2c(C#N)c(N)nc3sc(C(=O)c4ccc(Cl)cc4)c(N)c23)cc(OC)c1OC	.	-0.38
5	COC(=O)C1=C(C(=O)OC)SC(=C2C(=S)C(C)(C)N(C(=O)c3ccc(Br)cc3)c3cc(OC)ccc32)S1	.	0.11
6	Cc1c(CSC(=N)N)c(C)c(CSC(=N)N)c(C)c1CSC(=N)N	-0.8	0.43
7	Nc1nccc(-c2ccccc2OCc2ccc(Cl)cc2)n1	0.25	-0.65
8	COc1ccc(NC(=S)NC2CCCCC2)cc1	-0.25	-1.4
9	OCc1cc2ccccc2o1	-0.2	.
10	Cc1cc(C)nc(N2CCC(c3c[nH]c4ccccc34)CC2)n1	.	1
11	CCOC(=O)C1CCCN(C(=O)c2ccc(Cn3c(=S)[nH]c4ccc(Br)cc4c3=O)cc2)C1 (centres undefined)	.	-0.26
12	Cn1nc(C(F)(F)F)c(/C=N/OCc2ccc(Cl)c(Cl)c2)c1Cl	.	-0.56
13	CC(C)c1ccc(NC(=O)C(NC(=O)/C=C/c2ccc3c(c2)OCO3)c2ccccc2)cc1 (centres undefined)	.	60
14	CN1C(=O)c2c(sc3c2CCCC3)NC1c1ccc(O)cc1 (centres undefined)	0.05	-0.5
15	COc1ccccc1NC(=O)C1C(=O)NC2(C)CC1c1ccccc1O2 (centres undefined)	.	-0.28
16	O=[N+]([O-])c1cc(C(F)(F)F)cc([N+](=O)[O-])c1NCCN1CCNCC1	.	-1.5
17	COc1ccc(-c2nn(C)c3sc(C(=O)NC(C)C)cc23)cc1OC	-0.6	54
18	Cc1cc(C)nc(NC(C(=O)O)C(C)C)n1 (centres undefined)	-0.2	.
19	Clc1cc2c(c(Cn3cnc4ccccc43)c1)OCOC2	-0.75	0.06
20	O=c1[nH]nc(SCCO)c(=O)[nH]1	0.2	0
21	Cc1cc2c(cc1C)N(C(=O)c1cccc([N+](=O)[O-])c1)C(C)(C)c1ssc(=S)c1-2	.	-1.1
22	N#Cc1cccc(NC(=O)CNc2ccccc2Cl)c1	0.4	.
23	Cc1ccc(NC(=O)Nc2ccc(C(C)(C)C)cc2)cc1	2.9	-0.17
24	CC(NC(=S)N1CCc2ccccc2C1)C12CC3CC(CC(C3)C1)C2 (centres undefined)	-0.5	0.39
25	COc1ccc(-c2nc(SCC(=O)NCC3CCCO3)c(-c3ccc(F)cc3)[nH]2)cc1OC (centres undefined)	-0.15	6.8
26	CCN1C(=O)c2cccc3c(S(=O)(=O)NC(Cc4c[nH]c5ccccc45)C(=O)O)ccc1c23 (centres undefined)	0.4	-0.55
27	Cc1cccc(C)c1NC(=O)CC1C(=O)N(Cc2ccccc2)C(C)c2nc3ccccc3n21 (centres undefined)	-0.25	0.05
28	S=C1NCN(CC2CCCO2)CN1 (centres undefined)	0.5	0.43
29	C=CCn1c(C)cc(C(=O)CSc2nc3ccccc3c(=O)n2CC=C)c1C	-0.1	.
30	O=C(O)C1CC(=O)N(c2ccc(OC(F)(F)F)cc2)C1 (centres undefined)	-1.1	-0.56
31	COC(=O)/C(C#N)=C/c1ccccc1I	-0.4	.
32	Cc1cc(NC2C3CC4CC(C3)CC2C4)n2ncnc2n1 (centres undefined)	0.1	.
33	COc1ccc(CSc2cccc3cccnc23)cc1	-0.55	11
34	CCOC(Cn1c(CO)nc2ccccc21)OCC	-0.6	-0.07
35	O=C(NCCO)c1nnc(-c2ccc3c(c2)OCO3)o1	-0.95	-0.51
36	Cc1nn(Cc2ccc(Cl)cc2)c(C)c1NC(=O)COCc1cc(-c2cccs2)on1	0.2	0.39
37	Cc1ccc(-c2cc(C(=O)Nc3c(C)n(C)n(-c4ccccc4)c3=O)c3ccccc3n2)o1	.	-0.47
38	Cc1cc2c(c(SCc3ccc(Cl)cc3)n1)C(=O)OC2	0.15	0.31
39	NC(=O)c1cc(N)ccc1N1CCCC1	0.1	.
40	COC(=O)c1ccc(CSc2ncnc3ccccc23)o1	0.15	0.14

Some of the entries above in a different format:
The line under a structure holds: AID504770	Ba CapD inh
29) C=CCn1c(C)cc(C(=O)CSc2nc3ccccc3c(=O)n2CC=C)c1C
    -0.1	.
30) O=C(O)C1CC(=O)N(c2ccc(OC(F)(F)F)cc2)C1 (centres undefined)
    -1.1	-0.56

(more compounds)
cpd	SMILES	AID504770	Ba CapD inh
41	CSc1nnc2c(n1)OC1(Nc3ccccc3-2)C(=O)Nc2ccc([N+](=O)[O-])cc21 (centres undefined)	.	-2.2
42	O=C(Cc1n[nH]c(=O)c2ccccc12)OC1CCOC1=O (centres undefined)	0.1	.
43	Cc1nc(N)sc1C(N)=O	-0.85	.
44	O=[N+]([O-])c1ccc(-c2nc(NCCCN3CCOCC3)c3ccccc3n2)cc1	.	-0.29
45	COc1ccc2c(c1)OC1(C)CC2C(S(=O)(=O)c2ccccc2)C(=O)N1 (centres undefined)	-0.55	-0.32
46	CC(Oc1ccc(/C=C2\C(=O)NC(=S)N(c3cccc(Cl)c3)C2=O)cc1)C(=O)O (centres undefined)	.	-0.62
47	Cc1cccc(NC(=O)CC(C)(C)C)c1	-0.95	.
48	CC(C)(C)OC(=O)N1Cc2ccccc2CC1C(=O)NCc1cccnc1 (centres undefined)	.	0.09
49	COc1ccc(Nc2c(-c3cc(Br)ccc3O)nc3cnccn23)cc1	-1.4	0.09
50	COC(=O)C1=C(O)/C(=C/c2ccc(C(C)(C)C)cc2)N=C1C	-1.7	-0.08
51	Cc1cc2ncc(-c3cccs3)nc2cc1C	2	34
52	COc1cc(/C=C2/SC(=S)N(CC(=O)O)C2=O)cc(OC)c1	.	-0.41
53	CSCCn1c(C(C)(C)C)cc(C(=O)O)c1C	-1	-0.44
54	O=C(NCCCn1ccnc1)c1cc(-c2ccccc2)on1	1.7	0.04
55	CCOC(=O)c1c(C)oc(NC(=O)COC(=O)COc2ccc3c(c2)CCC3)c1C#N	0.95	.
56	CC(C)CC(=O)N=C1SC2CS(=O)(=O)CC2N1c1ccccc1 (centres undefined)	-0.9	0.005
57	COc1cccc(C(=O)N(C)C)c1	2.5	.
58	CCC(=O)Nc1sc2c(c1C(N)=O)CCCCC2	0.4	0.3
59	Cc1cc(/C=C2\C(=O)NC(=O)N(c3ccc(F)cc3)C2=O)c(C)n1-c1ccc(C(=O)O)cc1	.	-1.1
60	CCc1ccccc1NC(=O)c1cc(S(=O)(=O)NCCc2ccccc2)ccc1F	.	0.31
61	CCN1CCC(N(Cc2ccc(F)cc2)C(=O)NC23CC4CC(CC(C4)C2)C3)CC1	-0.6	-0.46
62	Cc1cccc(OCc2nc(-c3ccc(C(F)(F)F)cc3)no2)c1C	-0.4	-0.19
63	Cn1c2ccccc2c2nnc(SCCN3CCOCC3)nc21	2.2	0.79
64	CCCCOc1ccc(C2=N/C(=C\c3ccc(OC(C)=O)c(OC(C)=O)c3)C(=O)O2)cc1	.	8.6
65	Cc1ccccc1N(C)C(=O)NCc1noc2ccccc12	-0.95	-0.36
66	COC(=O)c1ccccc1Sc1c(-c2ccccc2)nc2ncccn12	0.3	10
67	Cc1nn(-c2ccccc2)c(C)c1NC(=O)COC(=O)/C=C/c1cccs1	0.3	.
68	O=C(COC(=O)CSc1nnc(-c2ccc(Cl)cc2)o1)NC1CCS(=O)(=O)C1 (centres undefined)	0.4	.
69	CC1(C)Cc2c(sc(NC(=O)C3CC3)c2C(N)=O)C(C)(C)N1	-0.4	.
70	CCn1nc(-c2cccnc2)nc2c(=O)n(C)c(=O)nc1-2	-1	-0.24
71	COc1ccc(CCN(C)CCCN2CC(c3ccccc3)CC2=O)cc1OC (centres undefined)	-1.1	0.3
72	COc1cc2c(cc1OC)C(COc1cc(C)cc(C)c1)NCC2 (centres undefined)	-0.5	-0.22
73	N#CC1=C(N)C(C#N)(C#N)C(c2ccco2)C2CN(Cc3ccccc3)CC=C12 (centres undefined)	-0.15	.
74	O=S(=O)(NC1(C(F)(F)F)Oc2ccccc2O1)c1ccccc1	1.1	0.27
75	CC1(C)SC(=S)N(CCN2CCOCC2)C1N(O)C(=O)Nc1cccc2ccccc12 (centres undefined)	.	5.6
76	Cc1cc(C)cc(N2C(N)=NC(N)=NC2c2ccccc2F)c1 (centres undefined)	-1.1	-0.14
77	C[C@@H]1C(=O)CC[C@@]2(CO)CCC(C)(C)C[C@@H]12	1.3	0.48
78	Cc1ccc(C(=O)COC(=O)c2ccccc2O)cc1	0.2	.
79	CCOC(=O)CC(=O)c1ccccc1	-0.85	.
80	CC(=O)Nc1ccc(NC(=O)c2sccc2Oc2ccc([N+](=O)[O-])cc2)cc1	.	-0.9
81	Cc1nc(N(CC(=O)OC2CC(C)CCC2C(C)C)S(=O)(=O)c2ccc(N)cc2)c(C)n1N (centres undefined)	0.7	.
82	O=C1/C(=C/c2ccc(Cl)cc2)C=C(c2ccccc2)N1c1ccc(I)cc1	.	-0.55
83	NS(=O)(=O)c1ccc(NC(=O)c2ccc(S(=O)(=O)N3CCc4ccccc43)cc2)cc1	-0.7	.
84	CCOc1ccc2nc(NCCNC(=O)C(C)(C)C)c(C)cc2c1	-0.95	.
85	O=C(N/N=C/c1csc([N+](=O)[O-])c1)c1ccccc1CCc1ccccc1	.	-1.1
86	O=C(Cn1c(=O)n(-c2ccccc2)c(=O)c2oc3ccccc3c21)N1CCCC1	-0.7	.
87	O=[N+]([O-])c1cc(Cl)c(-n2cccc2)cc1Sc1ccc(Cl)cc1	.	-0.11
88	N#Cc1c(-c2ccc(F)cc2)ccnc1Sc1c(Cl)cccc1Cl	.	0.19
89	CC1CCN(c2ccc(C#N)cc2)CC1	-0.65	0.3
90	Cc1nn(-c2ccccc2)nc1C(=O)OCc1ccc(C#N)cc1	1.1	.
91	Cc1nc(SCc2nc3ccccc3o2)n(C2CCCC2)c1C	-0.05	.
92	CCOc1ccccc1-n1c(=S)sc2c(=O)n(-c3ccccc3C)c(=S)[nH]c21	.	-1.4
93	O=C(CCC(=O)N1CCC(N(C2CC2)S(=O)(=O)c2ccc(Cl)cc2)CC1)NCc1ccncc1	.	-0.34
94	CCOc1ncc(-c2nnnn2-c2ccc(C)cc2)c(-c2cccc(Cl)c2)n1	-0.2	0.79
95	Cc1ccc2nsnc2c1S(=O)(=O)N1CCc2ccccc2C1CN1C(=O)c2ccccc2C1=O (centres undefined)	.	-0.11
96	Cc1oc(-c2cccc(C(F)(F)F)c2)cc1C(=O)O	0.3	.
97	Cc1cc(C(F)(F)F)c(C#N)c(=S)[nH]1	1.5&-1.4	0.93
98	S=C(NCCn1ccnc1)Nc1ccc(Cl)cc1	.	0.49
99	O=c1oc2ccc(Br)cc2cc1-c1nc2ccccc2s1	.	0.9
100	NC(=O)CN1CCCC1=O	-0.45	-0.33&-0.52

Next part:
cpd	SMILES	AID504770	Ba CapD inh
101	OC(c1cccs1)(c1cccs1)C1CN2CCC1CC2 (centres undefined)	0.25	0.35
102	Cc1ccc2ncnc(Oc3ncccc3NC(=O)C(C)(C)C)c2c1	-0.25	0.15
103	O=C1COc2ccc(C3=Nn4c(nnc4-c4ccncc4)SC3)cc2N1	-0.85	.
104	Cc1ccc2c(c1)c(=O)c1ccccc1n2CC(=O)Nc1ccccc1Br	.	4.5
105	CCN(CC)c1ccc(N2C(=O)/C(=C/c3ccc([N+](=O)[O-])cc3)C=C2c2ccccc2)cc1	.	-0.15
106	COc1ccc(Cl)cc1S(=O)(=O)N1CCCC1	-0.55	.
107	Cc1cccc(COC(=O)N2CCN(Cc3ccccc3Sc3ccc(Cl)cc3)CC2)c1[N+](=O)[O-]	.	-0.49
108	CCCn1c(NC(=O)CN2C(=O)C3C4C=CC(C4)C3C2=O)nc2ccccc21 (centres undefined)	0	.
109	Cc1n[nH]c(C)c1S(=O)(=O)Nc1ccccc1C(=O)Nc1ccc2c(c1)OCO2	0.3	.
110	O=C(Nc1ccc(S(=O)(=O)NC2=NCCCCC2)cc1)C1COc2ccccc2O1 (centres undefined)	-0.6	.
111	Cc1cccc(C(C)C)c1NC(=O)COC(=O)c1ccccc1N	-0.45	97
112	Cc1ccc(S(=O)(=O)NN2C(=O)c3ccccc3NC2(C)C)cc1	1.6	87
113	COc1cc(OC)cc(C(=O)Nc2cc(C(=O)N3CCCCC3C)ccc2N2CC3CC(C2)c2cccc(=O)n2C3)c1 (centres undefined)	.	-0.18
114	CC(C)(C)c1cc2ncnc(NNC(=O)c3cccs3)c2s1	-0.1	0.16
115	N=c1c2c3c(sc2ncn1CCCn1ccnc1)CCCCC3	0.85	.
116	Cc1[nH]c2c(NC(=O)C3CC3)cccc2c1C	.	-0.58
117	COC(=O)c1c(NC(=S)NCCn2cc(Br)cn2)sc2c1CCC2	1	-0.025
118	CCCCOc1ccccc1N1C(=O)CC(N2CCN(C(=O)OCC)CC2)C1=O (centres undefined)	0.1	.
119	Nc1ccc(-c2ccc(C(=O)O)s2)cn1	-0.35	.
120	CSc1cccc(NC(=O)CSc2ncn(-c3ccccc3)n2)c1	-0.9	-0.86
